Mtb hypoxia inh: reduces hypoxia-regulated biosensor signal in M. tuberculosis | M. tuberculosis hypoxia-regulated fluorescent reporter, fluorescence | fluorescence inhibition, % (no concentration beside the values) | actives 0.1% (n = 300,000) | AID 1159583;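 active = 35 to 45% if threefold the growth effect, above 45% if 1.5-fold the growth effect; inactive = the rest, general growth blockers included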;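 note: wells of about 50 µL received 100 nL stock; 0% = vehicle wells and 100% = reference inhibitor wells; whole bacteria with a GFP reporter of the hypoxia response; strong numbers were not always called active; many hits fall short of the cut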
Autofluor counter: compound fluorescence in toxin protease inhibitor counterscreen. actives 3.1% (n = 360,000). fluorescence intensity (test concentration not listed). compound autofluorescence counterscreen, microsphere flow cytometry; hits give high values. AID 624483;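 active = at least 3 SD above the mean of all compounds, about 16000 in these data; inconclusive = too few beads counted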;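 note: 100 nL of 1 mM stock went into each well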
BJeLR lethal: BJeLR cell viability loss | BJeLR (HRASV12) viability, CellTiter-Glo ATP luminescence, 48 h; reference of the scale not given here | inhibition, % (concentration not given with the values) | actives 0.17% (n = 300,000);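 active = replicate mean above 50%; inconclusive = above 50% but judged a plate artefact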;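 note: 50 nL library stock added to about 25 µL; numbers are from one replicate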
Sa RN4220 lethal: kills Staphylococcus aureus RN4220. S. aureus RN4220 growth, OD600, 16 h. actives 0.33% (n = 330,000). inhibition, % (concentration not given with the values);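 active = z-score of -3 or lower and OD600 up to 0.18 on both plates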;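 note: plate controls were untreated cells for no effect and reference antibiotic for full effect; stock transfer was 100 nL into about 80 µL; one replicate is shown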
Sa ugtP lethal: growth inhibition of S. aureus ugtP deletion strain; S. aureus RN4220 ugtP deletion, OD600 growth, 16 h; some inactives read as strong as hits; growth inhibition, % (test concentration not listed); actives 0.54% (n = 330,000); AID 1259309;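 active = z-score under -3 and OD600 up to 0.15 on both plates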;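 note: plate controls were untreated wells for no effect and antibiotic for full effect; wells of about 80 µL received 100 nL stock; the first replicate is given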
PrP UTR inh: inhibition of PrP 5' UTR reporter expression. cell-based PrP 5' UTR mRNA reporter, plate reader. AID 488862. inhibition, % (concentration not given with the values). actives 0.35% (n = 340,000);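 active = every replicate at 50% or more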;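 note: 0 = median of the neutral control wells; tested in H4 reporter cells; numbers are from one replicate; inactives centre near -14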
Mtb hypoxia inh growth: second read-out of Mtb hypoxia inh, no call of its own (marks repeat the call); growth inhibition, %; measured here: M. tuberculosis growth (absorbance);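 0% = vehicle and 100% = reference antibiotic; read after six days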
Starred values were filed as active, the others as inactive; ? = inconclusive; / = no result given.

SMILES	Mtb hypoxia inh	Mtb hypoxia inh growth	Autofluor counter	BJeLR lethal	Sa RN4220 lethal	Sa ugtP lethal	PrP UTR inh
O=C(COC(=O)c1cccnc1Cl)NC1CCCc2ccccc21 (stereo not given)	7	6	?	/	9.2	0	-20
COc1ccc(-c2cn[nH]c2-c2ccc(OCC(=O)NN)cc2O)cc1	5	11	3658	1	-0.1	-1	-9
O=[N+]([O-])c1cc(-c2nnc(C34CC5CC(CC(C5)C3)C4)o2)cc([N+](=O)[O-])c1	-7	-10	9961	-9	-0.4	-11	-22
O=C(O)c1cn(CCOc2ccccc2Cl)c2ccccc12	7	-1	3149	1	2.2	6	-28
O=C(O)c1ccc(/C=N/NC(=S)NCCN2CCOCC2)cc1	/	/	3531	-15	/	/	10
c1csc(Cc2nn3c(-c4ccncc4)nnc3s2)c1	2	3	5994	-1	4.5	-2	7
C[C@H](NC(=O)c1nc[nH]c1C(=O)N1CCN(c2ccccc2)CC1)C(=O)OC(C)(C)C	/	/	2922	-3	/	/	-10
CC1CCCN(C(=O)C2CCCN(S(=O)(=O)c3cccc4nsnc34)C2)C1 (stereo not given)	-3	7	9170	11	5.6	-3	-12
CN(CCc1ccccc1)Cc1nc(-c2cnccn2)no1	7	14	4304	-24	6.2	4	-5
COc1ccccc1CNC(=O)COC(=O)c1ccc([N+](=O)[O-])o1	-4	-2	3903	/	-0.6	4	-1
CCCCN(C(=O)Oc1ccccc1)C1CCS(=O)(=O)C1 (stereo not given)	-3	-3	/	3	3.0	-2	-21
Cn1c(=O)n(Cc2ccccc2)c(=O)c2c1nc1n2CCCN1Cc1ccccc1	/	/	4922	-5	-0.9	1	-32
COc1ccc(-n2nc3c(N4CCC(C(=O)NCC(C)c5ccccc5)CC4)nnc(C)c3c2C)cc1 (stereo not given)	3	16	13118	6	-3.5	-3	-3
O=C(Nc1ccc(Cl)cc1)c1ccsn1	/	/	2304	9	-0.4	-3	-54
O=C(CCN1CCN(c2ccccc2)CC1)N/N=C/c1ccc([N+](=O)[O-])o1	/	/	3917	-17	/	/	-9
O=C(CCNS(=O)(=O)c1ccccc1C(F)(F)F)NCC(c1ccco1)N1CCCCC1 (stereo not given)	-12	4	6063	4	2.9	1	-17
Cc1ccsc1/C=C(\C#N)C(=O)NCc1ccco1	-1	0	10754	1	4.2	0	-43
O=C(CNC(=S)N(Cc1ccccc1)Cc1cccnc1)NC1CCCC1	-6	-6	7142	0	-0.6	4	4
O=C(CSc1nnc(NC(=O)C2CCCCC2)s1)NCc1ccco1	9	3	4256	-13	3.8	7	-23
C=CCn1c(C)cc(C(=O)CSc2nnc3n(CCC)c(=O)c4ccccc4n23)c1C	19	5	4688	/	2.4	4	-29
Cc1cccc(Sc2nc(-c3ccccc3)ncc2C(=O)O)c1	3	13	4033	-4	20	2	-24
Cn1c(-c2ccc(F)cc2)cnc1SCC(=O)NCc1ccco1	9	1	9839	1	7.3	-4	-23
CC(C)C(=O)NC(=S)Nc1ccc(CN2CCOCC2)cc1	9	5	2192	8	0.4	11	0
COc1ccc(C(=O)N/N=C/C2CC=CCC2)cc1OC (stereo not given)	/	/	4129	-9	/	/	-25
OCCn1c(-c2ccc(F)cc2)csc1=Nc1ccccc1	13	5	2081	7	5.8	-3	-29
CCc1cccc(C)c1NC(=S)NCc1ccccc1	-6	-2	2105	3	2.7	6	-16
COC(=O)c1ccc(C(=O)OC)c(NC(=O)COc2ccccc2OC)c1	21	13	5352	-15	2.9	-5	-37
CCn1c(NCCc2ccc(OC)c(OC)c2)nc2c1c(=O)n(C)c(=O)n2C	/	/	/	2	10	-2	3
CC(C)(C)C(=O)OCCn1c(=O)c2cc3c(=O)n(CCOC(=O)C(C)(C)C)c(=O)c3cc2c1=O	2	1	9549	-6	0.6	0	-4
OCC1(Cc2ccccc2)CCN(Cc2ccc(-c3ccco3)cc2)CC1	9	9	3941	3	2.5	-1	-16

Rewritten as comma-separated lines: part of the list above
structure,Mtb hypoxia inh,Mtb hypoxia inh growth,Autofluor counter,BJeLR lethal,Sa RN4220 lethal,Sa ugtP lethal,PrP UTR inh
Cn1c(-c2ccc(F)cc2)cnc1SCC(=O)NCc1ccco1,9,1,9839,1,7.3,-4,-23
CC(C)C(=O)NC(=S)Nc1ccc(CN2CCOCC2)cc1,9,5,2192,8,0.4,11,0

Next part:
SMILES	Mtb hypoxia inh	Mtb hypoxia inh growth	Autofluor counter	BJeLR lethal	Sa RN4220 lethal	Sa ugtP lethal	PrP UTR inh
CCCCc1nn2c(N)c(/C=C3\C=Nc4ccccc43)c(=O)nc2s1	5	5	2048	-18	14	-7	-13
CC(c1ccco1)N(C(=O)c1ccccc1NS(=O)(=O)c1cc([N+](=O)[O-])ccc1Cl)c1ccccn1 (stereo not given)	6	10	2520	6	12	-3	-7
COc1cc(OC)c(NC(=S)NCc2ccc(F)cc2)cc1Cl	17	4	4517	4	2.8	3	-15
O=C(NC(=S)N1CCN(c2ccc([N+](=O)[O-])cc2)CC1)c1ccccc1F	14	6	2463	5	3.0	7	2
CCCCCCN1CC(O)=C(c2nc3ccccc3[nH]2)C1=N	6	7	8013	-9	2.8	-1	-29
CC(C)OCCCn1c(NN)nc2ccccc2c1=O	9	5	4612	2	12	15	-16
O=C(C1CC1)N1CCc2cc(Br)cc(S(=O)(=O)NCc3ccc4c(c3)OCO4)c21	3	4	8335	-6	3.7	0	-12
Cc1cc(C)c2nc(Cl)c(C3NC(=O)c4ccccc4N3)cc2c1 (stereo not given)	5	12	3224	1	4.9	4	-30
Cc1ccnc(NS(=O)(=O)c2ccc(NC(=O)Cc3ccc(F)cc3)cc2)n1	-5	8	3750	-1	3.8	2	-19
Cc1csc(NC(=O)CSCc2c(C)noc2C)n1	4	8	5522	2	0.5	3	-12
Cc1ccc2[nH]c(=O)c(CN(Cc3ccco3)C(=O)c3ccncc3)cc2c1	-3	2	6927	-4	7.8	-1	-16
C=CCN(CC=C)C(=O)c1c(OC)cccc1OC	7	3	2778	-7	3.1	1	-7
O=[N+]([O-])c1cnn(-c2nc(-c3ccccc3)cc(C(F)(F)F)n2)c1	8	9	3270	3	5.1	8	-18
Cc1ccc(C(=O)NS(=O)(=O)c2ccccc2)cc1	-7	-1	4681	2	-6.1	-6	-3
O=S1(=O)N=C(N(CCO)/N=C/c2ccncc2)c2ccccc21	/	/	4509	0	/	/	-4
Cc1nnc(SCC(=O)N2CCc3ccccc3C2)n1-c1ccccc1	-3	-2	7382	2	2.8	0	-10
Cn1c(C(=O)NCCN2CCOCC2)cc2c(=O)n3ccccc3nc21	-1	4	5630	16	-0.3	3	-13
COc1ccc(C=O)cc1CN1CCCN(Cc2ccccc2F)S1(=O)=O	6	-3	4234	4	4.5	1	-18
Cc1ccc(-c2nc(CS(=O)(=O)CC(=O)N3CCN(C)CC3)c(C)o2)cc1	1	1	5722	11	4.0	4	-25
O=C(OCc1c(-c2ccccc2)ncc2ccccc12)c1ccc(C(F)(F)F)cc1	21	18	3732	/	2.0	2	-16
CN(C)/C(=N\S(=O)(=O)c1ccc(F)cc1)c1ccccc1	/	/	3040	-2	/	/	-3
CC(=O)c1cccc(NC(=O)C2CCCCC2)c1	18	4	4445	2	0.9	1	-16
Cc1ccc2nc(NC(=O)COC(=O)CSc3nc(C)cc(C)n3)sc2c1	0	3	10199	4	3.9	-6	-46
COc1cc(OC)c(OC)cc1CN1CCCC(C(=O)c2ccccc2SC)C1 (stereo not given)	-11	-7	4546	-1	12	9	-10
CCOc1cc(/C=N/NC(=O)c2cccs2)cc([N+](=O)[O-])c1O	/	/	4530	-2	/	/	-11
Cc1occc1C(=O)N1CCCC(Nc2ccc(C(C)C)cc2)C1 (stereo not given)	0	2	6549	-5	6.4	-3	-2
CC(C)(C)c1ccc(NC(=O)Nc2ccc(F)cc2)cc1	3	1	4752	6	-4.8	-18	-89
O=C(CSc1nc2ccccc2c(=O)n1-c1ccccc1F)N1CCOCC1	2	-1	4177	/	-0.6	-1	-16
CCOc1ccc(C(=O)OCC(=O)Nc2cc(S(=O)(=O)N3CCOCC3)ccc2N2CCOCC2)cc1	-6	3	3564	/	3.1	3	-10
Cc1ccccc1NC(=O)c1ccc2snnc2c1	-1	6	6600	1	12	7	6
CCc1nnc(NC(=O)Cn2nnc(-c3ccccc3F)n2)s1	-2	4	9713	8	6.2	-4	-15
CCN(Cc1ccccc1)S(=O)(=O)c1cc(C(=O)NCC2CCCCC2)ccc1OC	7	4	7838	0	-3.4	-4	-19
CCCOc1ccccc1C=NNC(=O)C1CC1	6	1	/	/	6.2	-7	/
O=C(CN1C(=O)NC2(CCCC2)C1=O)N1CCN(c2cccc(C(F)(F)F)c2)CC1	4	11	4866	11	0.3	2	-12
O=S(=O)(c1cccs1)N1CCC(Cc2ccccc2)CC1	14	16	4098	3	4.6	44	-12
CCOc1ccccc1N1C(=O)CC(Sc2nccc(C)n2)C1=O (stereo not given)	0	0	4177	3	3.8	3	-10
NC(=O)NN=CCCc1ccccc1	3	1	/	/	3.3	2	/
O=C(CSc1nnc(NC(=O)c2ccco2)s1)Nc1ccccc1Cl	13	7	3641	2	-0.7	7	-22
Cc1cc(C)c(S(=O)(=O)N2CCc3ccccc32)c(C)c1	6	3	5201	3	-1.4	5	-21
Cn1c(CN2CCN(c3ccccc3NS(C)(=O)=O)CC2)nc2ccccc21	0	4	3702	-3	1.5	-4	-3
CCOc1ccc(C2=Nn3c(nnc3-c3cccnc3)SC2)cc1	4	-4	20067*	-7	0.6	1	-26
CCCC(=O)Nc1ccc(C(=O)n2nnc3ccccc32)cc1	11	8	3708	-4	2.9	3	-21
CC(C)CC(NC(=O)C1CCC(=O)N1C(=O)OCc1ccccc1)C(=O)NC(Cc1ccccc1)C(N)=O (stereo not given)	6	3	3553	-9	-4.5	-6	-12
CC1(C)Cc2nc3sc4c(=O)n(Cc5ccccc5)cnc4c3cc2CS1	/	/	6964	-8	/	/	-8
CN(C(=O)CN1C(=O)S/C(=C\c2ccccc2)C1=O)C1CCS(=O)(=O)C1 (stereo not given)	6	0	4647	6	3.1	7	-6

Profiles, looked up by structure. Screens in order: Mtb hypoxia inh, Mtb hypoxia inh growth, Autofluor counter, BJeLR lethal, Sa RN4220 lethal, Sa ugtP lethal, PrP UTR inh
Shown for `OCCn1c(-c2ccc(F)cc2)csc1=Nc1ccccc1` → 13, 5, 2081, 7, 5.8, -3, -29
Shown for `O=C(CN1C(=O)NC2(CCCC2)C1=O)N1CCN(c2cccc(C(F)(F)F)c2)CC1` → 4, 11, 4866, 11, 0.3, 2, -12
Shown for `CCCOc1ccccc1C=NNC(=O)C1CC1` → 6, 1, /, /, 6.2, -7, /

Continued.
SMILES	Mtb hypoxia inh	Mtb hypoxia inh growth	Autofluor counter	BJeLR lethal	Sa RN4220 lethal	Sa ugtP lethal	PrP UTR inh
CC(C)CN(C(=O)COC(=O)c1ccc2c(c1)NC(=O)CS2)C1CCS(=O)(=O)C1 (stereo not given)	/	/	5515	-6	-1.6	46	1
O=C(N/N=C/c1ccccc1[N+](=O)[O-])c1cnccn1	/	/	3976	0	/	/	-25
Cc1cccc(Nc2nc(N)c([N+](=O)[O-])c(N3CC(C)CC(C)C3)n2)c1 (stereo not given)	4	2	2144	0	-0.8	57	-9
Cc1cc(C)n(CCOC(=O)c2sc3ccccc3c2Cl)n1	/	/	4856	3	6.4	0	-26
CCCCCn1c(=O)c(C(=O)Nc2ccccc2N)c(O)c2ccccc21	2	6	3060	-4	1.5	2	-7
Cc1cc(C)n2nc(SCCC(=O)NCc3ccccc3)nc2n1	13	12	4074	-1	1.3	12	-11
COC(=O)c1ccccc1NC(=O)c1ccc(-c2ccc(Br)cc2)o1	/	/	5052	16	1.0	3	-34
CC(C)NS(=O)(=O)c1ccc(CCC(=O)Nc2ccc3c(c2)OCO3)cc1	3	3	9098	19	0.9	1	-42
CCOC(=O)C1=C(O)/C(=C\c2cccs2)N=C1C	11	5	2058	-22	8.8	4	-12
O=C(NC(CO)C(=O)OCc1ccccc1)OCc1ccccc1 (stereo not given)	-6	-15	6118	/	4.3	7	-6
CC(=O)Nc1ccc2oc(-c3cc(F)c(F)cc3Cl)nc2c1	-1	3	3946	7	3.6	4	-38
O=C(CNC(=O)OCc1ccccc1)Oc1ccc2ccc(=O)oc2c1	-4	-6	3265	0	1.8	10	-13
CCOc1ccccc1N1CCN(Cc2ccc(OC)c(OC)c2)CC1	-6	-4	/	/	0.0	4	-22

Screening results from PubChem BioAssay.
